Assay outcomes as filed in PubChem BioAssay.
Calb FLC: affects C. albicans growth with fluconazole; C. albicans CaCi-2 (fluconazole-resistant clinical isolate) + fluconazole, Alamar Blue growth, 48 h; growth inhibition, % (test concentration not listed); 300,000 compounds, 0.57% hits;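 active means most replicates above 75%; inconclusive means exactly half above 75%; inactive means most below 75%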;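 further: all wells also contain fluconazole at 8 µg/ml as a sub-toxic cotreatment; 0% = median of DMSO wells and 100% = median of geldanamycin control wells; wells of about 8 µL received 7.5 nL stock; the first replicate is given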
rRNA inh HTS: inhibits bacterial ribosomal RNA function over humanized ribosomes; E. coli WT GFP vs humanized-ribosome RFP mutants, fluorescence, 24 h; active compounds read low; DMSO median 0, no signal -100; GFP signal change (wild-type ribosome), % (no concentration beside the values); 350,000 compounds, 1.6% hits;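 active means significant combined selectivity score with lowered wild-type GFP, culture density cut under 30%, mutant RFP and density less affected; inactive means any of these conditions unmet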; further: one replicate is shown; some compounds called inactive have numbers as strong as hits
RanGTP-Imp inh: inhibitors of RanGTP-importin-beta interaction, primary screen, biochemical, FRET, CFP-Ran, YFP-importin-beta, homogeneous; 300,000 compounds, 1.1% hits; AID 2216; inhibition, % (no concentration beside the values); cell-free CFP-Ran/YFP-importin-beta FRET ratio;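 active means most replicates above 15%; inconclusive means exactly half above 15%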;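 further: 0% = DMSO wells and 100% = Ran loaded with GDP instead of GTP; wells of about 40 µL received 100 nL stock; the first replicate is given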
T cruzi repl: blocks replication of Trypanosoma cruzi. inhibition, % (no concentration beside the values). 300,000 compounds, 1.4% hits. T. cruzi beta-gal in NIH3T3, luminescence, 90 h;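 active means mean inhibition across valid replicates above about 55%, limit read from the data; inconclusive means mean below that limit but half or more replicates reach it; inactive means mean below it, under half of replicates reach it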;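 further: signal also drops with host cell toxicity which is not excluded here; 0% = plate median of DMSO wells and 100% = zero luminescence signal; higher percent means less beta-gal luminescence so fewer parasites; stock transfer was 50 nL into about 50 µL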
Vif TR-FRET: inhibitors of Vif binding to APOBEC3G peptide, primary screen, biochemical, TR-FRET, GST-Vif 1-94, biotin-A3G peptide, dose response retest (AID 1117319) | 260,000 compounds, 0.57% hits | inhibition, %, or IC50 in µM where a hit was titrated | TR-FRET GST-Vif / biotin-A3G peptide binding; higher % means a stronger effect; test concentration not given here; strong numbers were not always called active;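 active means above the screen mean plus three standard deviations and confirmed in dose response; inconclusive means results disagree or hit not tested in dose response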;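 further: Vif residues 1-94 fused to GST binding biotinylated APOBEC3G peptide 110-148; 0% = full assay without inhibitor and 100% = GST in place of GST-Vif; retest series ran down from 100 µM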
Beta cell apopt: beta cell apoptosis inhibition; INS-1E cytokine-induced death, ATP luminescence, 48 h; percent of positive-control rescue, neutral wells zero; protection from apoptosis, % (concentration not given with the values); 300,000 compounds, 0.8% hits; AID 435005;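 active means all replicates at 75% or more, or half of them and the mean; inconclusive means half reach 75% but not the mean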;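 further: 0% = cytokine-treated negative control wells and 100% = positive control rescue; higher means more ATP so stronger rescue from cytokine killing; wells of about 40 µL received 100 nL stock; the first replicate is given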
A1 inh: inhibitors of the anti-apoptotic protein A1, read as caspase activation | MEF A1-2A-BIM cells, Caspase-Glo 3/7 luminescence, 3 h; percent of clofoctol response, vehicle zero | caspase activation, % (concentration not given with the values) | 330,000 compounds, 0.066% hits | AID 2462;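 active means over half of replicate activation scores above 10%, or exactly half above 10 with the replicate mean above 10; inconclusive means replicate mean below 10 yet half the replicates above 10; inactive means over half of replicates below 10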;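 further: wells of about 30 µL received 50 nL stock; many hits fall short of the cut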
AF4-AF9 inh: blocks AF4 peptide binding to human AF9; P42568; 350,000 compounds, 0.47% hits; AID 651704; inhibition, % at 10 µM; AlphaScreen, biotin-AF4 peptide binding to FLAG-AF9;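 active means every replicate reaching a set inhibition limit, whatever the replicate mean, cut at about 25% in these data; inconclusive means mean inhibition reaches that limit but some replicates miss it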;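 further: 0% = plate neutral control median and 100% = total signal loss; the record names both 10 and 1 µM as test concentration; the first replicate is given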
Target sequence (P42568 whole entry, looked up): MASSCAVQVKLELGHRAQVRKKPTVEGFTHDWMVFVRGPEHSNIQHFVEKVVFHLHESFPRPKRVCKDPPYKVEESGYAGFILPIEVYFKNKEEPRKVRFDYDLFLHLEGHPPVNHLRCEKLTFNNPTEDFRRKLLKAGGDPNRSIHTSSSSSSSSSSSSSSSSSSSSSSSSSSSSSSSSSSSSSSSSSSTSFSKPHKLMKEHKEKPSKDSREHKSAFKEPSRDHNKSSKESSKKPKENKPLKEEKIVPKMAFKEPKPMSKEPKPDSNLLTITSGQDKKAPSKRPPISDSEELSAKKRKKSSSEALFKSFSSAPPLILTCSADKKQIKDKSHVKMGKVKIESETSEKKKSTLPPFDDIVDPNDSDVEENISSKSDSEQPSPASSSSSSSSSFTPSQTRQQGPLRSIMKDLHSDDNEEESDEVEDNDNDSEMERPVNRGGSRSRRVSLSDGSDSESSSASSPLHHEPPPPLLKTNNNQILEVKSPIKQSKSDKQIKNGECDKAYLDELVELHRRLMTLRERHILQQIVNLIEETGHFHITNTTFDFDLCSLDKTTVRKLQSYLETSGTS
rRNA inh HTS OD600: recorded beside rRNA inh HTS, whose call it bears; OD600 change, %; measured here: OD600 growth;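 optical density of the mix in the first replicate; 0 = DMSO median and -100 = no signal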
rRNA inh HTS RFP: recorded beside rRNA inh HTS, whose call it bears; RFP signal change, %; measured here: RFP humanized mutant strains;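 first replicate; 0 = DMSO median and -100 = no signal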
* hit, by the source's call; ? = inconclusive; . = no result given; & = joins results of further samples; ! = not active in a repeat. An excerpt; rates above refer to the full screens.

SMILES | Calb FLC | rRNA inh HTS | rRNA inh HTS OD600 | rRNA inh HTS RFP | RanGTP-Imp inh | T cruzi repl | Vif TR-FRET | Beta cell apopt | A1 inh | AF4-AF9 inh
O=C(O)c1cc(N2C(=O)C3C4C=CC(C4)C3C2=O)ccc1N1CCOCC1 (centres undefined) | 16 | 7 | 2 | 3.3 | 1.4 | -10 | . | -6 | 0.3 | -0.1
CC(C)(C)n1nnnc1C(c1cccs1)N(Cc1cccnc1)Cc1ccccc1Cl (centres undefined) | 19 | . | . | . | -0.2 | 71* | -8%&1% | . | 0.4 | .
O=C(NCCc1ccccc1)c1ccccc1NC(=O)C1CCCCC1C(=O)O (centres undefined) | 7 | -2 | 5 | -3.6 | ? | -19 | 7% | -8 | -0.6 | 1.2
CC(=O)Nc1cccc(C(=O)NC(C)c2ccc(S(N)(=O)=O)cc2)c1 (centres undefined) | ? | . | . | . | -3.0 | -5 | 74% | -17 | 0.6 | .
Cc1nc2ccccn2c1C(=O)N/N=C/c1ccccc1 | 5 | 2 | 5 | 2.4 | 4.2 | -16 | 9% | . | 0.3 | 0.7
CCn1cc(CNC(=O)C2C3CCC(C3)C2C(=O)O)cn1 (centres undefined) | -2 | . | . | . | 1.2 | -4 | 5% | 3 | 0.3 | .
Cc1ccc(NC(=O)CN2C(=O)N/C(=C/c3ccc(C)s3)C2=O)cc1 | 19 | . | . | . | -2.3 | -28 | . | -2 | 1.1 | .
Cc1cccn2c(=O)c3cc(C(=O)N4CCCC(C)C4)sc3nc12 (centres undefined) | -5 | -8 | -1 | -1.1 | 0.5 | 17 | . | 3 | -2.1 | -1.7
Cc1cc(C(=O)NC2CCC(C)CC2)c(C)o1 (centres undefined) | -1 | 3 | 2 | 1.9 | 2.7 | 1 | 7% | 3 | -0.9 | 0.1
Cc1ccc2cc(CN(CCN3CCOCC3)Cc3nnnn3Cc3ccco3)c(=O)[nH]c2c1C | -3 | . | . | . | 0.9 | 2 | 11% | . | . | .

The closing 4 compounds of the part before are carried over, then new ones follow.
SMILES | Calb FLC | rRNA inh HTS | rRNA inh HTS OD600 | rRNA inh HTS RFP | RanGTP-Imp inh | T cruzi repl | Vif TR-FRET | Beta cell apopt | A1 inh | AF4-AF9 inh
Cc1ccc(NC(=O)CN2C(=O)N/C(=C/c3ccc(C)s3)C2=O)cc1 | 19 | . | . | . | -2.3 | -28 | . | -2 | 1.1 | .
Cc1cccn2c(=O)c3cc(C(=O)N4CCCC(C)C4)sc3nc12 (centres undefined) | -5 | -8 | -1 | -1.1 | 0.5 | 17 | . | 3 | -2.1 | -1.7
Cc1cc(C(=O)NC2CCC(C)CC2)c(C)o1 (centres undefined) | -1 | 3 | 2 | 1.9 | 2.7 | 1 | 7% | 3 | -0.9 | 0.1
Cc1ccc2cc(CN(CCN3CCOCC3)Cc3nnnn3Cc3ccco3)c(=O)[nH]c2c1C | -3 | . | . | . | 0.9 | 2 | 11% | . | . | .
CCOC(=O)N1CCN(S(=O)(=O)c2ccc(C(=O)N(CCCN(C)C)c3nc4ccc(Cl)cc4s3)cc2)CC1 | 0 | -7 | 2 | 1.4 | 1.8 | 35 | . | 7 | 2.3 | 4.0
CCC(=O)c1c[nH]c(C(=O)NCCCN2CCOCC2)c1 | -1 | . | . | . | 8.7 | -19 | 6% | -6 | -3.0 | .
CCOc1ccccc1N1CC(C(=O)Nc2ccc(S(=O)(=O)N3CCCCC3)cc2)CC1=O (centres undefined) | -4 | 5 | 13 | -1.6 | -4.0 | 1 | -3% | 5 | 2.0 | -0.7
COc1cccc(N2[C@@H](CC(=O)O)c3ccccc3S2(=O)=O)c1 | -5 | 2 | 14 | -1.2 | 3.3 | -16 | . | -3 | 0.0 | -0.9
Cc1ccc2cc(NC(=O)Cc3ccccc3)ccc2n1 | 8 | -12 | -2 | 1.6 | -0.4 | 4 | -5% | -5 | -3.3 | 1.5
COc1ccccc1C(=O)NNC(=O)CCCN1C(=O)/C(=C/c2cccs2)SC1=S | -9 | . | . | . | -0.1 | 36 | ? | -8 | 2.2 | .
O=C1CSC(c2ccccc2[N+](=O)[O-])N1c1cccc(F)c1 (centres undefined) | 0 | -7 | -8 | 2.3 | 3.5 | -4 | . | -2 | 0.4 | 3.4
C1CC1Cc1noc(CN2CCN(C3C4CC5CC(C4)CC3C5)CC2)n1 (centres undefined) | -6 | 11 | 6 | -0.7 | 3.6 | -2 | . | -5 | -0.2 | 1.0
O=[N+]([O-])c1cccnc1Oc1ccc(OCc2ccccc2)cc1 | 7 | 4 | 10 | 0.3 | -3.5 | 17 | -8% | 0 | -2.8 | -0.2
COC(=O)c1ccc(C(=O)NC(=S)Nc2nc3c(s2)CCCC3)cc1 | -20 | . | . | . | -2.0 | 13 | 12% | -2 | -0.9 | .
CC1(c2ccccc2)NC(=O)N(CC(=O)NCCC2=CCCCC2)C1=O (centres undefined) | 0 | . | . | . | 0.5 | 4 | -7% | . | 2.9 | .
COC(=O)C(C)Sc1ccc2nnc(-c3cccc(F)c3)n2n1 (centres undefined) | 3 | -13 | -8 | 0.4 | -4.7 | 19 | 17% | . | 1.6 | 8.7
c1ccc(-c2cnn3nnnc3n2)cc1 | 3 | . | . | . | 0.6 | 0 | 0% | -5 | -0.3 | .
O=C(Nc1ccc(F)cc1)c1ccc(=O)[nH]n1 | 24 | 9 | 11 | -1.7 | 2.6 | -11 | -4% | 1 | -1.6 | 0.0
O=C(CCN1CCN(C/C=C/c2ccccc2)CC1)Nc1ccccc1Cl | 6 | -15 | -17 | 14 | 1.3 | 34 | . | 1 | 0.6 | 8.9
O=C(O)COCC(=O)Nc1ccc2c(c1)oc1ccccc12 | 2 | 2 | 20 | -0.3 | ? | -23 | -6% | -6 | -0.6 | -0.4
CCCC(=O)NCCc1cc2c(C)ccc(C)c2[nH]c1=O | 7 | 8 | 6 | 0.9 | ? | -10 | 8% | -7 | 0.4 | -1.3
O=C(COC(=O)c1ccc(S(=O)(=O)NCc2ccco2)cc1)NCc1ccccc1 | . | -1 | -4 | -0.7 | . | . | 0% | -5 | 0.4 | -3.6
CCS(=O)(=O)N1Cc2ccccc2CC1C(=O)N(C)CC(=O)Nc1cccc(F)c1 (centres undefined) | 8 | 5 | 9 | -1.5 | 0.1 | -1 | -6% | -2 | -0.3 | -0.3
COCCn1cnc2c1c(=O)n(CC(=O)NC(=O)NC(C)(C)C)c(=O)n2Cc1ccccc1 | -1 | 5 | -1 | 2.4 | 4.6 | -13 | -8% | 1 | 0.7 | 2.1
CC(=O)Nc1ccc(Nc2cc(C)c3ccccc3n2)cc1 | -2 | -10 | -12 | -6.9 | -1.8 | 4 | . | 5 | 0.6 | 3.9
COc1ccc(CCNCC(=O)N2C(C)CCCC2C)cc1OC (centres undefined) | -4 | 15 | 9 | -1.2 | ? | -2 | . | -13 | -0.1 | -0.3
COc1cccc(N2C(=O)CN(Cc3ccccc3)C2=S)c1 | 1 | -9 | 0 | 4.0 | 2.6 | -16 | 2% | -4 | 0.6 | -1.8
COc1ccc(-n2c(C)cc(C(=O)CSc3nn4c(=O)c(C(C)(C)C)nnc4s3)c2C)cc1 | 9 | 6 | 5 | 2.2 | -1.2 | 40 | 10µM*! | 5 | 1.6 | .
C#CCOc1ccc(/C=N/NC(=O)c2cccnc2)cc1OCC | 0 | 12 | 12 | 14 | 6.8 | 0 | 5% | -2 | 1.4 | -1.1
Cc1ccc(C)c(NC2=C(Cl)C(=O)OC2OC(=O)c2ccco2)c1 (centres undefined) | -9 | -28* | 4.0* | 2.6* | -2.7 | -4 | 1% | -13 | 0.4 | 1.2
CCCc1noc(-c2ccc(-c3ccccc3)cc2)n1 | -23 | . | . | . | 2.5 | -5 | -5% | 5 | -4.1 | .
Cc1ncc([N+](=O)[O-])n1CC(=O)N/N=C/c1ccccc1F | -3 | 13 | -7 | 8.0 | -0.1 | -11 | . | -4 | -0.5 | -5.2
CC1CN(c2nc3ccccc3cc2-c2ccccc2)CC(C)O1 (centres undefined) | 4 | -15 | 3 | -1.6 | 3.6 | 20 | -5% | -3 | -0.9 | -11
O=C(CN1C(=O)NC2(CCCCC2)C1=O)Oc1ccc2c(C(F)(F)F)cc(=O)oc2c1 | 10 | -10 | -12 | 0.8 | 33* | -5 | . | -4 | 0.8 | ?
CCn1c(Cc2ccccc2)nnc1SCC(=O)Nc1nc2ccccc2s1 | 4 | . | . | . | -0.8 | 9 | 4% | -4 | 0.8 | .
Cc1cc(C)nc(N2CCC(C(=O)NCC3CCCCC3)CC2)n1 | 1 | . | . | . | -0.3 | 0 | 21% | . | . | 1.1
C/C=C\C=C/C(=O)Nc1cccc(C2=NOC3(C2)C[C@@H](C(N)=O)N(C(=O)CCCCC)C3)c1 (some centres undefined) | 2 | 6 | 15 | 9.9 | 1.3 | -12 | 1% | -7 | 0.8 | -10
O=C(Cn1nnc2ccccc21)OCC(=O)c1ccc(F)cc1 | -10 | -6 | -3 | -0.3 | -3.4 | . | 21% | -13 | 1.6 | 0.6
COc1ccc(CN2C(=NC(=O)c3ccccc3)SC3CS(=O)(=O)CC32)cc1 (centres undefined) | 0 | 14 | 7 | 0.3 | 4.0 | 25 | . | 2 | 1.1 | 0.4
CC(Cc1cccs1)NC(=O)c1cccs1 (centres undefined) | ? | 11 | 9 | -0.3 | -0.8 | -18 | . | 2 | -0.7 | -2.2
Cc1ccc(C)c(NC(=O)C2C(c3ccccc3)C2(Cl)Cl)c1 (centres undefined) | -26 | . | . | . | -2.0 | -10 | -10% | 2 | 1.9 | .
O=C(CO/N=C/c1ccccc1OC(F)F)NC1CCCCC1 | -28 | -1 | -10 | -1.3 | -0.2 | 7 | . | -14 | 0.3 | -0.7
Cc1nc(SCCC(=O)O)c2ccccc2n1 | 12 | 6 | -8 | -2.4 | -2.1 | -25 | -5% | 0 | 0.4 | -12
Cc1ccc(O)c(NC(=O)c2ccc3c(c2)C(=O)N(Cc2cccnc2)C3=O)c1 | -4 | 5 | 8 | 5.2 | 0.7 | -36 | 2% | 0 | -0.3 | -0.3
COc1ccc(C)cc1-n1c(C)cc(C=O)c1C | -4 | -9 | -2 | 0.1 | -0.4 | 1 | 0% | -6 | -0.4 | 1.8
O=C(NCc1ccc(Cl)cc1)C1CCCN(C(=O)c2ccc(Cl)cc2)C1 (centres undefined) | . | . | . | . | . | . | -7% | -4 | 1.3 | -2.2
CCOC(=O)c1c(S(=O)(=O)NCC(=O)Nc2ccccc2OC)c(C)n(C)c1C | 10 | 2 | 10 | 1.3 | -2.5 | 5 | . | -11 | -0.9 | 1.7
